CSC inhib = blocks cancer stem cells | AID 2717 | actives 1.1% (n = 300,000) | cancer stem cell-like cells viability, luminescence | inhibition, % at 7.5 µM;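 active = mean at 75% or more and at least half the replicates too; tested in HMLE shEcad cells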;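 note: 0% = median of negative and 100% = median of positive control wells; the first replicate is given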
UUG fidelity = modulators of start codon recognition fidelity in yeast; S. cerevisiae UUG-firefly luciferase reporter, luminescence/redox ratio; AID 602363; actives 0.13% (n = 350,000); activity score, % at 18.7 µM;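 active = replicate mean at a twofold rise or more, about +100% in these data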;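 note: firefly luciferase made from a UUG start codon reports start codon fidelity; reporter light over untreated wells divided by growth signal over untreated wells; some hits fall short of that in this replicate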
PABP polyA inh = blocks human PABP binding to poly(A) RNA; P11940; fluorescence polarization; inhibition, % at 35 µM; actives 1% (n = 290,000);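 active = 50% or more with normal probe brightness, or confirmed in later tests; about a fifth of its hits are not listed in these tables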;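 note: calls also rest on retests at 20 µM and on dose response follow-up; controls were probe without protein and protein plus probe with vehicle; some compounds called inactive have numbers as strong as hits; many hits fall short of the cut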
MT1-MMP act inh = MT1-MMP (human) activation inhibition; P50281; HT1080 RFP-PRO-GFP cells, GFP/RFP ratio fluorescence, overnight; percent of plate control window, DMSO zero; GFP/RFP ratio change, % at 20 µM; actives 0.061% (n = 360,000); AID 651647;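 active = GFP/RFP ratio change of at least 30% with cell ATP level not reduced by more than half and red fluorescence within 50% of control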; note: strong numbers were not always called active
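Assay system: RFP-PRO-GFP reporter HT1080 cells; read-out basis: GFP/RFP fluorescence ratio; benchmarks: DMSO wells and RFP-L50D-GFP cells; doses: 20 µM single dose, 1% DMSO; schedule: overnight cell settling, then overnight compound exposure, 37 °C, 5% CO2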
eIF4H FP inh = inhibitors of RNA binding by human eIF4H | eIF4H fluorescence polarization binding assay | inhibition, % at 35 µM | actives 0.94% (n = 290,000) | AID 2012;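 active = 50% or more with normal probe brightness, or confirmed in later tests; about a fifth of its hits are not listed in these tables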;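 note: calls also rest on retests at 20 µM and on dose response follow-up; 0% = protein and probe with vehicle and 100% = probe without protein; strong numbers were not always called active; many hits fall short of the cut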
HIV Env fusion = HIV envelope-mediated fusion inhibition | HeLa-JRFL Env/CEM21 cell fusion, luciferase | inhibition, % at 12.3 µM | actives 1.1% (n = 360,000);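 active = mean replicate inhibition score of at least 50 and every replicate individually at or above 50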;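 note: 0% = plate neutral controls and 100% = maraviroc near 300 nM; one replicate is shown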
Rce1 inh = inhibitors of yeast Ras-converting enzyme | Q03530 | actives 0.27% (n = 290,000) | yeast membranes, quenched prenylated peptide cleavage fluorescence | calls only;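 active = fall in fluorescence gain of 50% or more versus controls, with final raw signal at or below 3038400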;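 note: plate controls were neutral control wells for no effect and wells lacking membranes for full effect; tested at 10 µM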
Target sequence (Q03530 whole entry, looked up): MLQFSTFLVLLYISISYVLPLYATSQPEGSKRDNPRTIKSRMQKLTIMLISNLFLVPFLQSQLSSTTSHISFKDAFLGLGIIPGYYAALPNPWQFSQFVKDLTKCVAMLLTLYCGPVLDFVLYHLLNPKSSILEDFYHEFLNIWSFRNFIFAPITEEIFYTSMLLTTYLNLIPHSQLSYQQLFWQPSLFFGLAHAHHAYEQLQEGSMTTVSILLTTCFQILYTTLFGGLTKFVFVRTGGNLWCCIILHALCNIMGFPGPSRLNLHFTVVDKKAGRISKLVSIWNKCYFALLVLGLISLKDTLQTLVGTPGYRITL
MT1-MMP act inh RFP = further read-out of MT1-MMP act inh, marked with its call; RFP signal change, %; measured here: RFP expression control read;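 0 = vehicle wells; hits needed this value within 50% of zero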
* = called active by the depositor; & = joins results of further samples.

`Cc1ccc(C(=O)NCc2ccc(Cl)c(Cl)c2)o1` gave CSC inhib -5, UUG fidelity -8, PABP polyA inh 10, MT1-MMP act inh -6, eIF4H FP inh 3, HIV Env fusion -42, Rce1 inh inactive and MT1-MMP act inh RFP -3.
`Nc1ccccc1-n1cccc1` gave CSC inhib 4, UUG fidelity -21, PABP polyA inh -1, MT1-MMP act inh -8, eIF4H FP inh 2, HIV Env fusion -11, Rce1 inh inactive and MT1-MMP act inh RFP 6.
OCC1(CCc2ccccc2)CCN(Cc2cnc(N3CCCC3)s2)CC1 was read as CSC inhib 5, UUG fidelity 17, PABP polyA inh -9, MT1-MMP act inh -8, eIF4H FP inh -4, HIV Env fusion -7, Rce1 inh inactive and MT1-MMP act inh RFP 0.
For N/C(=N\OC(=O)CCC(=O)O)c1ncc(C(F)(F)F)cc1Cl the results were CSC inhib -4, PABP polyA inh 4, MT1-MMP act inh 0, eIF4H FP inh -5, HIV Env fusion -12, Rce1 inh inactive and MT1-MMP act inh RFP 2.
COc1ccc(NC(=O)C[C@H]2C(=O)N(Cc3ccccc3)C[C@@H]2C)cc1 was read as UUG fidelity -13, MT1-MMP act inh 1, HIV Env fusion 10 and MT1-MMP act inh RFP 1.
O=S(=O)(c1ccccc1)N1CCN(c2nc3ccccc3s2)CC1 was read as UUG fidelity -11, PABP polyA inh -4, MT1-MMP act inh 3, eIF4H FP inh -1, HIV Env fusion -59, Rce1 inh inactive and MT1-MMP act inh RFP 11.
For Cc1ccc(S(=O)(=O)N2CCC(=O)N(CCOC(=O)Nc3ccc(C)c(C)c3)CC2)cc1 the results were CSC inhib 16, UUG fidelity 19, PABP polyA inh 20, MT1-MMP act inh 4, eIF4H FP inh 1, HIV Env fusion 26, Rce1 inh inactive and MT1-MMP act inh RFP -10.
`O=C(CCCN1C(=O)c2ccccc2C1=O)N1CCOCC1` gave CSC inhib 25, PABP polyA inh -7, MT1-MMP act inh 0, eIF4H FP inh 0, HIV Env fusion -9, Rce1 inh inactive and MT1-MMP act inh RFP 4.
Screening Cc1ccc(-n2nnnc2SCC(=O)NCC2(N3CCCCC3)CCCCC2)c(C)c1 returned UUG fidelity -18, MT1-MMP act inh 4, HIV Env fusion -28 and MT1-MMP act inh RFP 0.
`Cc1c(C)c2ccc(OCC(=O)NCc3ccccn3)cc2oc1=O` gave CSC inhib -5, UUG fidelity -21, PABP polyA inh -4, MT1-MMP act inh 4, eIF4H FP inh -4, HIV Env fusion -9, Rce1 inh inactive and MT1-MMP act inh RFP 5.
Cc1ccccc1OC(=O)Cn1c(C(F)(F)F)nc2ccccc21 was read as CSC inhib 3, UUG fidelity -13, PABP polyA inh -7, MT1-MMP act inh 5, eIF4H FP inh 1, Rce1 inh inactive and MT1-MMP act inh RFP 3.
COc1ccc(CCN(C)C(=O)COC(=O)/C=C/c2ccc(C)o2)cc1OC was read as UUG fidelity -8, MT1-MMP act inh -2, HIV Env fusion -11 and MT1-MMP act inh RFP 2.
Screening CCCCCC1CCC(C(=O)N2CCOCC2)CC1 (stereo unspecified) returned CSC inhib -4, UUG fidelity 1, PABP polyA inh -1, MT1-MMP act inh -2, eIF4H FP inh -16, HIV Env fusion -9, Rce1 inh inactive and MT1-MMP act inh RFP -4.
For CCCCNC(=O)Cn1cnc([N+](=O)[O-])n1 the results were CSC inhib 0, UUG fidelity -20, PABP polyA inh 9, MT1-MMP act inh -1, eIF4H FP inh 5, HIV Env fusion -1, Rce1 inh inactive and MT1-MMP act inh RFP 2.
Screening NS(=O)(=O)c1ccc(CNC(=O)C2CCCCC2)cc1 returned CSC inhib 7, UUG fidelity -12, PABP polyA inh 8, MT1-MMP act inh 2, eIF4H FP inh 3, HIV Env fusion -36, Rce1 inh inactive and MT1-MMP act inh RFP 4.
For COc1cccc(/C=N/Nc2nc(N3CCCC3)nc(N3CCCC3)n2)c1O the results were CSC inhib 7, UUG fidelity -18, PABP polyA inh -7, MT1-MMP act inh 4, eIF4H FP inh -6, Rce1 inh inactive and MT1-MMP act inh RFP -2.
`Nc1c(S(=O)(=O)c2cccs2)c2nc3ccccc3nc2n1Cc1ccc2c(c1)OCO2` gave CSC inhib 17, UUG fidelity -17, PABP polyA inh -2, MT1-MMP act inh -8, eIF4H FP inh -2, HIV Env fusion -1, Rce1 inh inactive and MT1-MMP act inh RFP -11.
`O=C(CSc1nc(=O)n(CCN2CCOCC2)c2c1CCCC2)Nc1ccc([N+](=O)[O-])cc1` gave UUG fidelity -8, MT1-MMP act inh -2, HIV Env fusion -21, Rce1 inh inactive and MT1-MMP act inh RFP 0.
`Cc1ccc(S(=O)(=O)N2CCCNCC2)cc1` gave CSC inhib 51, UUG fidelity -5, PABP polyA inh -5, MT1-MMP act inh 1, eIF4H FP inh -5, HIV Env fusion 11 and MT1-MMP act inh RFP 2.
`CNc1nc(Nc2ccc(C)c(Cl)c2)c2cnn(C)c2n1` gave CSC inhib 6, UUG fidelity -6, PABP polyA inh 10, MT1-MMP act inh -2, eIF4H FP inh -7, HIV Env fusion 20, Rce1 inh inactive and MT1-MMP act inh RFP -9.
For Cc1c(C(=O)N2CCCCCC2)c(S(=O)(=O)Nc2cccc(F)c2)c(C)n1C the results were CSC inhib -23, UUG fidelity -5, PABP polyA inh 1, MT1-MMP act inh -2, eIF4H FP inh 4, HIV Env fusion 0, Rce1 inh inactive and MT1-MMP act inh RFP 2.
CCOc1c(Br)cc(/C=C(\C#N)C(=O)NC2CC2)cc1OC was read as CSC inhib 15, UUG fidelity -2, PABP polyA inh 1, MT1-MMP act inh -7, eIF4H FP inh 28, HIV Env fusion -97, Rce1 inh inactive and MT1-MMP act inh RFP 0.
C/C(=N\NC(N)=S)c1ccc2c(c1)OCCO2 was read as CSC inhib -20, PABP polyA inh 4, MT1-MMP act inh 6, eIF4H FP inh -16, HIV Env fusion 37, Rce1 inh inactive and MT1-MMP act inh RFP 6.
CC(=O)Oc1ccc(C(=O)Nc2cccc3c2CCCC3)cc1 was read as CSC inhib -7, UUG fidelity -7, PABP polyA inh 4, MT1-MMP act inh -5, eIF4H FP inh -1, HIV Env fusion 1, Rce1 inh inactive and MT1-MMP act inh RFP -1.
Screening CCCC1=C(C(=O)OCC)C(c2cccnc2)n2nc(C)nc2N1 (stereo unspecified) returned CSC inhib -5, PABP polyA inh 7, MT1-MMP act inh -2, eIF4H FP inh 4, HIV Env fusion 2, Rce1 inh inactive and MT1-MMP act inh RFP -1.
`COC(=O)c1ccccc1N(Cc1ccccc1)S(C)(=O)=O` gave UUG fidelity -17, PABP polyA inh -4, MT1-MMP act inh 7, eIF4H FP inh -5, Rce1 inh inactive and MT1-MMP act inh RFP 8.
For CCOC(=O)COc1c(OC)cc(Cl)cc1C1Nc2ccccc2C(=O)N1c1ccccc1 (stereo unspecified) the results were CSC inhib 17, UUG fidelity -18, PABP polyA inh -9, MT1-MMP act inh -6, eIF4H FP inh -11, Rce1 inh inactive and MT1-MMP act inh RFP -5.
Screening O=C(CCCN1C(=O)/C(=C\c2cccs2)SC1=S)Nc1ccccn1 returned CSC inhib 16, UUG fidelity 1, PABP polyA inh -8, MT1-MMP act inh 3, eIF4H FP inh -11, HIV Env fusion 6, Rce1 inh inactive and MT1-MMP act inh RFP 1.
Screening Cc1ccc(C)c(NC(=S)NC(NC(=O)OCc2ccccc2)C(Cl)(Cl)Cl)c1 (stereo unspecified) returned CSC inhib -19, PABP polyA inh -15, MT1-MMP act inh -1, eIF4H FP inh -6, Rce1 inh inactive and MT1-MMP act inh RFP -1.
O=C(Nc1ccccc1)c1cn2ccccc2n1 was read as CSC inhib 19, UUG fidelity -62, PABP polyA inh -3, MT1-MMP act inh 3, eIF4H FP inh -11, HIV Env fusion 35, Rce1 inh inactive and MT1-MMP act inh RFP 1.
`O=C(COC(=O)c1ccc(O)cc1O)NC(=O)NCc1ccccc1` gave UUG fidelity -18, MT1-MMP act inh -2, HIV Env fusion -6 and MT1-MMP act inh RFP -1.
`O=C(NCCN1CCOCC1)c1ccc2c(c1)N(Cc1ccc(Cl)cc1)C(=O)CS2` gave CSC inhib -15, UUG fidelity 4, PABP polyA inh 2, MT1-MMP act inh 1, eIF4H FP inh 0, HIV Env fusion -9, Rce1 inh inactive and MT1-MMP act inh RFP 5.
Screening COCCCNC(=O)c1ccc(CNS(=O)(=O)c2ccc(NC(C)=O)cc2)cc1 returned CSC inhib 5, UUG fidelity -4, PABP polyA inh -9, MT1-MMP act inh 10, eIF4H FP inh 2 and MT1-MMP act inh RFP 4.
COCCn1c(=O)c2c(nc3n2CCCN3CCc2ccccc2)n(C)c1=O was read as CSC inhib -8, UUG fidelity 42, PABP polyA inh -6, MT1-MMP act inh 3, eIF4H FP inh -14, HIV Env fusion -2, Rce1 inh inactive and MT1-MMP act inh RFP -2.
c1ccc(-c2onc3cc4c(cc23)OCCO4)cc1 was read as CSC inhib 9, UUG fidelity -16, PABP polyA inh -7, MT1-MMP act inh 0, eIF4H FP inh 0, Rce1 inh inactive and MT1-MMP act inh RFP 1.
For COc1cc2c(C(=O)N(C)c3cc(Cl)ccc3OC)cn(C)c(=O)c2cc1OC the results were CSC inhib -4, UUG fidelity 19, PABP polyA inh -2, MT1-MMP act inh 3, eIF4H FP inh 2, HIV Env fusion 2, Rce1 inh inactive and MT1-MMP act inh RFP 3.
Screening C/C(CC(=O)NC(C)(C)C)=N\NC(N)=S returned CSC inhib -6, PABP polyA inh -5, MT1-MMP act inh -5, eIF4H FP inh -7, HIV Env fusion 11, Rce1 inh inactive and MT1-MMP act inh RFP -4.
For C=CCSc1nnc(NC(=O)CSc2nc(CCC)cc(=O)[nH]2)s1 the results were CSC inhib -12, UUG fidelity -18, PABP polyA inh 6, MT1-MMP act inh 4, eIF4H FP inh -4, Rce1 inh inactive and MT1-MMP act inh RFP -13.
For Cc1nn(-c2ccccc2Cl)c2sc(C(=O)Nc3nnc(C4CC4)s3)cc12 the results were CSC inhib 10, PABP polyA inh -13, MT1-MMP act inh 6, eIF4H FP inh 4, HIV Env fusion 13, Rce1 inh inactive and MT1-MMP act inh RFP 7.
For COC(=O)C(C)N(C(=O)c1ccc(Cl)cc1)c1c(C)cccc1C (stereo unspecified) the results were CSC inhib -7, UUG fidelity 13, PABP polyA inh 4, MT1-MMP act inh 1, eIF4H FP inh 1, HIV Env fusion 13, Rce1 inh inactive and MT1-MMP act inh RFP -5.
For CC(=O)c1ccc(N2CCN(c3ncccn3)CC2)cc1 the results were CSC inhib -12, UUG fidelity -7, PABP polyA inh -10, MT1-MMP act inh 4, eIF4H FP inh 8, HIV Env fusion -15, Rce1 inh inactive and MT1-MMP act inh RFP -1.
`O=C(c1cnccn1)N1CCCC(N2CCN(c3cccc(Cl)c3)CC2)C1` (stereo unspecified) gave CSC inhib -4, UUG fidelity -2, PABP polyA inh 10, MT1-MMP act inh -3, eIF4H FP inh -8, HIV Env fusion -11, Rce1 inh inactive and MT1-MMP act inh RFP 2.
Screening COc1cc(Cc2cnc(N)nc2N)cc(OC)c1OC returned CSC inhib -8&-6, UUG fidelity -3&-6, PABP polyA inh 2&9, MT1-MMP act inh 1&-1, eIF4H FP inh -1&-1, HIV Env fusion -29, Rce1 inh inactive and MT1-MMP act inh RFP 0&-4.
`CC(C)(C)CC(=O)Nc1nnc(SCC(=O)Nc2ccccc2F)s1` gave CSC inhib -22, PABP polyA inh 1, MT1-MMP act inh 4, eIF4H FP inh -4, HIV Env fusion 8, Rce1 inh inactive and MT1-MMP act inh RFP -7.
Screening CCOc1ccc(NC(=O)c2ccc(OC)cc2)cc1 returned CSC inhib -4, UUG fidelity -2, PABP polyA inh -2, MT1-MMP act inh 2, eIF4H FP inh 5, HIV Env fusion -100, Rce1 inh inactive and MT1-MMP act inh RFP 1.

Assay outcomes: PubChem, several laboratories
